# Rango-impB inh: Rango-importin beta binding inhibition; Q14974; Rango CFP/YFP FRET sensor + importin beta, 45 min; Potency, µM (top dose mostly 92.2 µM), for the others: top-dose inhibition of complex formation; 0.031% of 340,000 active; AID 540263; active = rising FRET ratio curve, often small or poorly fitted; inconclusive = mostly compound fluorescence or quenching in the first reads; inactive = flat curves in all reads;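 note: potency is the fitted concentration of half-maximal effect; 0% = DMSO wells and 100% = buffer wells lacking importin beta; nearly all actives have a fitted effect of over 15% in size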
#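 FRET biosensor Rango (snurportin 1 IBB between N-terminal EYFP and C-terminal Cerulean), 50 nM in PBS/1 mM DTT/0.02% Tween-20/0.1% BSA, preincubated 5 min RT with compound; 0.125 microM importin beta added, 45 min RT, CFP/YFP FRET ratio read.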
# Rango release inh: inhibitors of RanGTP-induced Rango-importin beta complex dissociation; 0.071% of 340,000 active; Potency, µM (top dose mostly 46.1 µM), inactives show at the top dose activity change, negative = inhibition; O95149+P62826; Biochemical FRET Rango-importin beta, RanGTP-induced dissociation; active means falling FRET ratio curve, often poorly fitted, with flat reads before Ran was added; inconclusive means other falling curves, or compound fluorescence or quenching; inactive means flat or rising ratio curve;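 note: potency is the fitted concentration of half-maximal effect; % of control where 0% means no effect; nearly all actives have a fitted effect of over 45% in size; -100% = wells without RanGTP and RCC1; the record marks most hits as doubtful in a second field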
#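 Quantitative HTS using a FRET biosensor: 0.1 uM Rango, 0.25 uM importin beta, 0.6 uM Ran, 2 mM GTP, 0.2 uM RCC1 final, PBS with DTT, Tween-20 and BSA. Post-read taken 45 min after Ran addition.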
# GLA inh pH 4.5: inhibitors of human alpha-galactosidase A at pH 4.5; P06280; purified enzyme, 4-MU-alpha-Gal fluorescence, pH 4.5; activity change, negative = inhibition, % at 105 µM; 230,000 tested, under 10 active; inconclusive = small, poorly fitted or top-dose-only inhibition, or a rising curve; inactive = flat fitted curve, though single readings scatter; no compound was filed as active;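 note: 0% = full activity with enzyme and -100% = basal without enzyme; dose as in the result columns while the protocol names 77 µM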
# Target sequence (P06280 whole entry, looked up): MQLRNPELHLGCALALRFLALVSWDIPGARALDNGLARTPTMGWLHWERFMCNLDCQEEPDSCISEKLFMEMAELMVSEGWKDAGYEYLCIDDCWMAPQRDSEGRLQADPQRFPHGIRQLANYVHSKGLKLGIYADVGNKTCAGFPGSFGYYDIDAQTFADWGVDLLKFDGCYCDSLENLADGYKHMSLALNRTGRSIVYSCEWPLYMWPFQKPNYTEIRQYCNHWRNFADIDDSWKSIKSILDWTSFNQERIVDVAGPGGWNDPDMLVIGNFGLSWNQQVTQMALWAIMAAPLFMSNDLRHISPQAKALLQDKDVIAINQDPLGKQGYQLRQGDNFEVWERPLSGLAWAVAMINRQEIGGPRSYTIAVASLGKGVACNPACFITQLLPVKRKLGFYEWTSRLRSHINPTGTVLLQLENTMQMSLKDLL
# miR-21 reporter: miR-21 reporter, rising signal; HeLa miR-21 FLuc reporter, luciferase, 48 h; Potency, µM (series often up to 38.3 µM), without a hit: at the top dose reporter change, positive = more light; 340,000 tested, under 10 active; AID 2288; active = well fitted rising curve with a large enough effect; inconclusive = small, poorly fitted or top-dose-only effect; inactive = no such curve, though single readings can be large or run the other way;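 note: % of control where 0% means no effect; miR-21 action dims this reporter so a rising signal means less miR-21 action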
#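 Compounds were titrated across several concentrations (up to approximately 40 uM) and incubated 48 hours with HeLa miR-21-FLuc reporter cells (miR-21 target sequence downstream of FLuc, endogenous miR-21). Readout was firefly luciferase luminescence after lytic detection reagent.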
# * = called active by the depositor; ? = inconclusive; / = no result given; & = joins results of further samples. Some of the compounds tested. The share of hits here may be higher or lower than overall.
Structure	Rango-impB inh	Rango release inh	GLA inh pH 4.5	miR-21 reporter
CCOC(=O)C1CCCN(c2c(N3CCN(C)CC3)c(=O)c2=O)C1 (configuration not stated)	-0.4%	-8%	-8	0%
COc1cccc(C(=O)N2CCSC2=S)c1	-0.4%	-8%	-14	1%
Cc1cc(NC(=O)CN2C(=O)NC3(CCCCC3)C2=O)ccc1N1CCCC1	-3.0%	-12%	/	/
Cc1ccc(C)c(NC(=S)N2CCC(NC(=O)c3cccc(F)c3)CC2)c1	0.2%	2%	/	7%
CC(C)CC(=O)Nc1ccc(S(=O)(=O)Nc2nccs2)cc1	-6.6%	-9%	/	-1%
C(CNC1C2CC3CC(C2)CC1C3)CN1CCOCC1 (configuration not stated)	-2.1%	-2%	4	-2%
COc1ccc(C(=O)N/C=C/n2cnc3cc(C(F)(F)F)ccc32)cc1	5.6%	1%	-1	0%
COc1ccc(Nc2nnc(C)c3ccccc23)cc1	1.7%	-6%	/	-55%
COc1ccccc1N(CC(=O)N/N=C(\C)c1cccc(Br)c1)S(C)(=O)=O	0.8%	11%	4	-8%
Cc1ccc(C)c(CN2CCC(CNC(=O)Nc3ccc(C)c(F)c3)CC2)c1	0.2%	-10%	/	-3%
Cc1ccc(NS(=O)(=O)c2ccc(-c3coc(C)n3)cc2)c(Br)c1	-1.3%	3%	/	-7%
COc1ccc2c(c1OC)C(=O)OC2CC(=O)O (configuration not stated)	-1.4%	-4%	3	-3%
O=C(COC(=O)c1ccc[nH]c1=O)Nc1ccc(N2CCCCC2)cc1	-3.7%	-13%	/	/
COc1ccc(-c2noc(CCC(=O)NCc3cccnc3)n2)cc1	-3.2%	7%	7	-9%
CC(=O)c1ccc(-c2ccc(C(=O)Nc3nc(-c4ccccn4)cs3)o2)cc1	-0.6%	-19%	/	/
COc1cc(NC2c3ccccc3C(=O)N2Cc2ccccc2Cl)cc(OC)c1 (configuration not stated)	6.1%	16%	-15	3%
Cc1ccccc1C(=O)/C(C#N)=N/Nc1c(C)n(C)n(-c2ccccc2)c1=O	?	-28%	-6	23%
CCOC(=O)c1sc(NC(=O)CSc2n[nH]c(-c3ccncc3)n2)c(C#N)c1C	-0.4%	17%	2	-2%
Cc1ccccc1-c1nnc(SCC(=O)Nc2ccc(Cl)cc2)n1N	0.2%	3%	7	-11%
Nc1cc(Cl)nc(N/N=C/c2ccccc2[N+](=O)[O-])n1	1.1%	12%	1	-46%
CCCCn1nc(C(=O)Nc2cc(C(F)(F)F)ccc2N2CCOCC2)ccc1=O	-1.2%	-6%	/	/
CC1CCCCC1NC(=O)COC(=O)Cc1ccc(Cl)cc1 (configuration not stated)	-2.9%	?	/	/
COc1cccc(-c2c(C(=O)N/N=C/c3ccncc3)nnn2-c2nonc2N)c1	0.0%	-5%	/	-2%
S=c1[nH]nc(COc2cccc(Cl)c2)n1Cc1ccccc1	3.2%	-16%	8	-1%
Cc1cc(C)c(S(=O)(=O)c2ccc(Cl)cc2C)c(Cl)n1	0.0%	-7%	12	0%
COc1cc(SC)ccc1C(=O)N1CCN(Cc2ccccc2)CC1	-1.6%	13%	-1	5%
CCCN(C(=O)/C=C/c1nc2ccccc2s1)C1CCS(=O)(=O)C1 (configuration not stated)	-0.5%	-13%	/	/
Cc1ccc(/C=C(\C#N)C(=O)NC(C)c2ccccc2)o1 (configuration not stated)	-1.1%	-22%	/	-16%
Cc1ccccc1CSc1nnc(-c2ccco2)n1Cc1ccco1	4.9%	-18%	-1	-7%
Cc1ccc(S(=O)(=O)NCCCC(=O)O)cc1	4.7%	0%	5	-3%
Cn1cnc([N+](=O)[O-])c1Cl	0.9%	2%	-1	7%
CC1(C)Nc2ccccc2C(=O)N1c1ccc(Br)cc1	-0.2%	-9%	/	/
O=C(C1=NN(c2ccccc2)C2C(=O)N(c3cccc(Cl)c3)C(=O)C12)c1ccccc1 (configuration not stated)	?	?	-9	1%
O=C(Cc1c(F)cccc1Cl)NCCN1CCOCC1	-0.3%	7%	-1	-1%
Cc1cc(C)c(OCC(=O)Nc2cccc(NC(=O)c3ccco3)c2)c(Br)c1	-9.6%	-2%	-3	19%
C#CC[N+](C)(C)CC#Cc1ccc(C)cc1	?	6%	6	4%
CCN(CC)C(=O)Cn1cc(S(=O)(=O)CC(=O)NC2CCCCC2)c2ccccc21	0.1%	14%	?	-3%
COc1cc(NS(=O)(=O)c2ccc(NC(C)=O)cc2)ncn1	6.3%	8%	3	0%
O=C(O)c1cccn2c(=O)c3ccccc3nc12	9.0%	-10%	-2	-2%
CC(C)N(C(=O)COC(=O)c1cccc(C(=O)OCC(=O)N(C(C)C)C(C)C)n1)C(C)C	0.7%	1%	-5	-2%
CC(C)(C)NC(=O)NC(=O)COC(=O)c1ccc(OC(F)(F)F)cc1	-0.8%	0%	4	-9%
COc1ccc(OC)c(NC(=O)c2[nH]c(C)c(C(C)=O)c2C)c1	0.7%	-7%	5	-34%
CCCc1noc2c1/C(=N\O)CC(CC(C)SCC)C2 (configuration not stated)	0.6%	-14%	-10	-18%
COc1ccc(S(=O)(=O)N2CCN(C(=O)c3ccco3)CC2)cc1C(C)(C)C	-5.5%	10%	/	-1%
Cc1ccc(NC(=O)COC(=O)C(NS(=O)(=O)c2ccc(Cl)cc2)C(C)O)cc1C (configuration not stated)	3.9%	17%	6	11%
CC(NC(=O)CN(C)CC(=O)Nc1ccc(Cl)cc1)c1ccc(F)cc1 (configuration not stated)	-0.2%	-16%	/	/
CCCNC(=O)c1nnsc1S(=O)(=O)c1ccc(Cl)cc1	-2.4%	3%	1	?
CCOc1ccc(N=C(/C(C(=O)C(=O)N2CCOCC2)=C(/O)c2ccccc2)c2ccccc2)cc1	0.0%	-1%	0	-56%
Cc1cccc(N2CCN(C(=O)C3CCC(=O)N(C4CC4)C3)CC2)c1C (configuration not stated)	0.2%	-7%	/	-8%
Cc1ccc(C)c(-n2c(Cc3cc(=O)[nH]c(=O)[nH]3)nnc2SCC(=O)NCc2ccco2)c1	2.6%	-15%	/	/

# Next records
Structure	Rango-impB inh	Rango release inh	GLA inh pH 4.5	miR-21 reporter
COc1ccc(S(=O)(=O)N(C)C(C)CCc2ccco2)cc1 (configuration not stated)	0.6%	-13%	/	-3%
N/C(=N\OC(=O)c1ccc(Br)cc1)c1ccccc1	-1.6%	2%	3	-42%
CCC(=O)Nc1ccc(Cl)c(NC(=S)NC(=O)COc2ccccc2)c1	3.7%	-18%	2	-11%
CC1CN(S(=O)(=O)c2ccccc2)CC(C)O1 (configuration not stated)	-2.0%	6%	-13	-3%
Cc1ccc(S(=O)(=O)N2CCOCC2)cc1C(=O)NCCN1C(=O)S/C(=C\c2ccccc2Cl)C1=O	-3.3%	4%	-3	3%
CCOC(=O)C1=C(N)Oc2cc(C)[nH]c(=O)c2C1c1ccncc1 (configuration not stated)	0.0%	11%	11	-10%
O=C(NCCN1CCOCC1)C1CCC(=O)N1Cc1ccccc1Cl (configuration not stated)	-0.3%	-3%	3	-3%
CCCCNC(=O)O[C@H]1C[C@@H]2CCN3C(=O)CCC[C@H]([C@H]1Cc1ccccc1)[C@H]23	0.4%	-14%	/	1%
Cc1ccc(/C=C/C(=O)OCC(=O)Nc2cccc(S(=O)(=O)N(C)C)c2)o1	-2.7%	-8%	-4	-7%
CCn1c(/C=C/c2ccccc2F)nc2ccccc2c1=O	1.2%	-26%	/	-8%
CC(=O)c1ccc(C(=O)N2CCCC(CO)(Cc3ccccc3C)C2)s1 (configuration not stated)	-0.8%	12%	/	-3%
c1ccc(Cc2nnc(N3CCOCC3)c3ccccc23)cc1	2.6%	-1%	-2	-13%
CC(=O)Nc1nnc(SCC(=O)Nc2ccc3c(c2)OCCO3)s1	-3.8%	-9%	/	0%
CC1(C)CC(=O)C(C(c2ccc(F)cc2)C2C(=O)CC(C)(C)CC2=O)C(=O)C1	-1.6%	6%	-5	0%
O=C(O)CC1(CC(=O)Nc2cc(F)ccc2Cl)CCCCC1	-2.4%	5%	-13	-2%
c1cc2cn[nH]c2cc1NC1CCCCCC1	-3.3%	-3%	5	1%
CCCCN(CC)c1nc(N)c2c(N)nc(OCC)cc2c1C#N	?	?	5	-6%
S=C(NCc1ccco1)Nc1ccc(N2CCOCC2)cc1	1.8%	-5%	1	-34%
COc1ccccc1N1CC(C(=O)NCCN2C(=O)S/C(=C\c3cccnc3)C2=O)CC1=O (configuration not stated)	-2.8%	-21%	/	/
COc1ccc(C(=S)N2CCCC2)cc1Br	-0.8%	15%	/	-15%
C=CCSc1nc(N)c(C(=O)Nc2ccccc2)cc1C#N	-0.9%	2%	3	-2%
O=C(NCCS(=O)(=O)NCc1ccc(F)cc1)c1ccccc1	-2.1%	7%	/	/
COc1ccc(CCNC(=O)C2CCN(C(=O)c3cccs3)CC2)cc1	-3.6%	-7%	7	2%
COc1cc(C2NC(=O)C(C#N)=C(Nc3cccc(C)c3)S2)ccc1O (configuration not stated)	1.2%	4%	-4&-1	-2%&4%
Cc1noc(C)c1C(=O)NC1=NCCS1	-2.4%	6%	/	2%
N/C(=N\OC(=O)CCCOc1ccccc1)c1ccccc1	3.2%	2%	-4	-24%
CS(=O)(=O)C1=C(O)C(=O)N(CCCC(=O)O)C1c1ccccc1F (configuration not stated)	4.0%	-1%	-10	-2%
CCOc1ccc(C(=O)CCC(=O)N(CC)CC(=O)NCc2ccc(Cl)cc2)cc1	4.8%	-3%	/	-5%
N#Cc1c(Cl)cccc1-n1ccnc1	3.2%	6%	-4	-4%
N#CN/C(=N\S(=O)(=O)c1ccccc1)c1ccccc1	0.2%	-16%	/	0%

# Three entries out of the list, arranged by length of the SMILES, rising:
Structure	Rango-impB inh	Rango release inh	GLA inh pH 4.5	miR-21 reporter
C=CCSc1nc(N)c(C(=O)Nc2ccccc2)cc1C#N	-0.9%	2%	3	-2%
O=C(NCCS(=O)(=O)NCc1ccc(F)cc1)c1ccccc1	-2.1%	7%	/	/
COc1cc(C2NC(=O)C(C#N)=C(Nc3cccc(C)c3)S2)ccc1O (configuration not stated)	1.2%	4%	-4&-1	-2%&4%

# (list continues)
Structure	Rango-impB inh	Rango release inh	GLA inh pH 4.5	miR-21 reporter
CC1C(=O)CC(c2ccccc2)N(C)C1c1ccccc1 (configuration not stated)	5.6%	-2%	-7	-3%
CCCN1CCC(NC(=O)Nc2ccc(Br)cc2)CC1	?	?	/	-6%
CS(=O)(=O)Nc1ccc(S(=O)(=O)NCCc2ccccc2)cc1	1.0%	-8%	-1	-1%
OCCC1CN(Cc2cccc(OC3CCCC3)c2)CCN1Cc1ccsc1 (configuration not stated)	6.4%	0%	-3	6%
COc1ccc(CNC(=O)CCCN2C(=O)c3ccccc3C2=O)cc1	1.0%	0%	7	-2%
OCCNc1ncnc2ccc(Br)cc12	-1.0%	11%	4	13%
Cc1ccc(C(=O)N/C(N)=N/c2nc3ccccc3o2)cc1	2.2%	2%	-6	-6%
C[C@@H]1CN(c2c(F)c(N)c3c(=O)c(C(=O)O)cn(C4CC4)c3c2F)C[C@H](C)N1	/	/	-9	-6%
COc1ccc(CCNC(=O)c2cc(S(=O)(=O)N3CCC4(CC3)OCCO4)ccc2F)cc1OC	1.0%	3%	-6	9%
Cc1c(NC(=O)C2CCCO2)cccc1[N+](=O)[O-] (configuration not stated)	-0.8%	6%	4	-5%
COc1cc(CNC2CCCCC2OC)cc(OC)c1OC (configuration not stated)	0.4%	4%	1	0%
Cn1c(=O)[nH]c(=O)c2c1ncn2CCCc1ccccc1	1.8%	3%	1	-2%
O=C(NCCc1c[nH]c2ccccc12)c1ccc2[nH]c(=O)c(=O)[nH]c2c1	-5.6%	19%	/	4%
CC(C)c1c(C(=O)N/N=C/c2c[nH]c3ccccc23)nnn1-c1nonc1N	-0.3%	13%	/	10%

# Source: PubChem BioAssay (National Center for Advancing Translational Sciences (NCATS))
